Vif TR-FRET – inhibitors of Vif binding to APOBEC3G peptide, primary screen, biochemical, TR-FRET, GST-Vif 1-94, biotin-A3G peptide, dose response retest (AID 1117319); TR-FRET GST-Vif / biotin-A3G peptide binding; higher % means a stronger effect; test concentration not given here; strong numbers were not always called active; one-dose inhibition, %; IC50 in µM for titrated hits; 260,000 tested, 0.57% active;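 active = above the screen mean plus three standard deviations and confirmed in dose response; inconclusive = results disagree or hit not tested in dose response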;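 also: Vif residues 1-94 fused to GST binding biotinylated APOBEC3G peptide 110-148; 0% = full assay without inhibitor and 100% = GST in place of GST-Vif; retest series ran down from 100 µM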
Ecoli growth – blocks Escherichia coli growth. OD600, 23 h; stronger effect = lower value. OD600 absorbance (test concentration not listed). 330,000 tested, 0.21% active. AID 1053175;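 active = OD600 absorbance below the run mean of sample wells minus 3.6 SD, in any replicate, cut at about 0.56 in these data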;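 also: stock transfer was 300 nL into about 60 µL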
HNF4A DNA FP – change in binding of human HNF4 alpha to DNA; activity change, % at 10 µM; HNF4a-FITC DNA binding, fluorescence polarization, 1 h; AID 1224865; 360,000 tested, 0.3% active; P41235; in the data active = activity change above about 30%, passing the limit was not always enough;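 also: controls were the assay level and a saturating level of protein; the project sought stronger binding though the title names inhibitors; some compounds called inactive have numbers as strong as hits; positive values seem to mean higher polarization but the record does not say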
Target sequence (P41235 whole entry, looked up): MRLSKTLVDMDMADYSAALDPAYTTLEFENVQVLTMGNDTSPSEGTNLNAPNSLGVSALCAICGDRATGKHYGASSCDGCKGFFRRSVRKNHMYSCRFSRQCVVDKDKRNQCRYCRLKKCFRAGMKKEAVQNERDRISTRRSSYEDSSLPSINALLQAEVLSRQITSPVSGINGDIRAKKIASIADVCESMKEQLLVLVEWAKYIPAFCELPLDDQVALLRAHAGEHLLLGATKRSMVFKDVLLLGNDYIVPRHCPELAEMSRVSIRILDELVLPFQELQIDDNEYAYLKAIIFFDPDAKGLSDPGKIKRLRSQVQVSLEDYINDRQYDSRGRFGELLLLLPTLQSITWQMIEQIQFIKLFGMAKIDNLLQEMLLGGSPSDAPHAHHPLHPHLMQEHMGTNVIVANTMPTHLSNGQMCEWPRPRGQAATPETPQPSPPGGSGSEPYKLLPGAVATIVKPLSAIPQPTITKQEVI
Bfl-1 A1 inh – inhibitors of the anti-apoptotic protein A1, read as caspase activation; MEF A1-2A-BIM cells, Caspase-Glo 3/7 luminescence, 3 h; percent of clofoctol response, vehicle zero; caspase activation, % (test concentration not listed); 330,000 tested, 0.066% active;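 active = over half of replicate activation scores above 10%, or exactly half above 10 with the replicate mean above 10; inconclusive = replicate mean below 10 yet half the replicates above 10; inactive = over half of replicates below 10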;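 also: wells of about 30 µL received 50 nL stock; many hits fall short of the cut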
B2AR ag – agonists of human beta-2 adrenergic receptor inducing internalization; Am2.2-beta2AR cells, FAP receptor internalization, flow cytometry; reference of the scale not given here; response, % (no concentration beside the values); 340,000 tested, 0.43% active;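 active = response above a set limit, near 3 SD of response in nonfluorescent compounds, cut at about 42% in these data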;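 also: stock transfer was 100 nL into about 11 µL; a reference agonist was the positive control; negative values mostly stem from fluorescent compounds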
LANA-H2B inh – blocks KSHV LANA binding to histone H2A/H2B | 320,000 tested, 0.6% active | cell-free LANA-H2A/H2B peptide, fluorescence polarization | inhibition, % (no concentration beside the values) | AID 2629; in the data active = inhibition mostly above about 10%, no sharp cut-off; inactive = mostly below about 6.7%;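 also: stock transfer was 7.5 nL into about 10 µL; 0% = median of vehicle wells and 100% = median of positive control wells; one replicate is shown; the record names a cut of 25% in any replicate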
UCH37 DUB inh – blocks the human deubiquitinase UCH37 | 330,000 tested, 0.33% active | Q9Y5K5 | inhibition, % (no concentration beside the values) | purified proteasome/UCH37, Ub-AMC cleavage fluorescence | AID 588478;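 active = mean of two replicates above 20%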;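 also: 0% = compound-free wells with enzyme and 100% = wells lacking proteasome; stock transfer was 100 nL into about 20 µL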
Target sequence (Q9Y5K5 whole entry, looked up): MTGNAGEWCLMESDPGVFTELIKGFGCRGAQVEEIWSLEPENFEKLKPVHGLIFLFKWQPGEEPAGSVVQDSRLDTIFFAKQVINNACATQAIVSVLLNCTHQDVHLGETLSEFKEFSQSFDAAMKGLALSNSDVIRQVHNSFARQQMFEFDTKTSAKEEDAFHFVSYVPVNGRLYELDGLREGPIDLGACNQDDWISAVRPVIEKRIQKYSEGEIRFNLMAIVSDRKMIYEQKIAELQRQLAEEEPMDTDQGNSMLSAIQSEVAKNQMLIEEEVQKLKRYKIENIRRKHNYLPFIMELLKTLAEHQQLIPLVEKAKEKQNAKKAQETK
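Material: Human UCH37 enzyme supplied as purified proteasome complex | Schedule: 30 min preincubation with enzyme, 25 min cleavage at room temperature | Detection: AMC fluorescence 355/460 nm | Measure: % inhibition of Ub-AMC cleavage fluorescence | Controls: Wells without proteasome as full block, compound-free enzyme plus substrate as uninhibited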
Numbers without * were called inactive; i = inactive; ? = inconclusive; . = no result given.

SMILES	Vif TR-FRET	Ecoli growth	HNF4A DNA FP	Bfl-1 A1 inh	B2AR ag	LANA-H2B inh	UCH37 DUB inh
COc1ccc([N+](=O)[O-])cc1NC(=O)/C=C/C(=O)O	6.7%	0.686	-1.6	0.2	1.9	-0.9	3.7
COc1ccc(O)c(/C=N/c2sc(C)c(C)c2C#N)c1	10.1%	.	138.4	0.1	-6.4	-0.8	.
CC(C)CNC(=O)CCCc1c[nH]c2ccccc12	5.9%	0.699	-1.2	0.3	0.9	-3.6	4.2
COc1cc2oc(=O)cc(-c3cccc(-c4ccc(C(F)(F)F)cc4)c3)c2c(OC)c1OC	-7.0%	0.708	-3.1	.	-7.8	.	-6.0
CN(C)Cc1nc2ccccc2c(=O)n1Cc1nc(C(C)(C)C)cs1	32.7%	0.726	-2.5	-0.1	-2.3	-9.3	1.4
O=C(O)C1=C[C@H](c2ccc(Br)cc2)C[C@H](OCCCCO)O1	9.4%	.	0.2	1.0	-1.0	-1.8	2.9
CCOc1ccc(C(C(=O)NC2CCCCC2)N(C(=O)Cc2cccs2)c2ccc(-n3cnnn3)c(OC)c2)cc1 (stereo unspecified)	.	0.752	-1.4	1.2	-15.6	3.1	-1.8
COc1ccc(N2CCN(C(=O)c3cccs3)CC2)cc1	-7.7%	0.708	-3.5	1.3	2.5	-3.0	3.6
Cn1nc(C(F)(F)F)c(C(=O)Nc2ccc(F)cc2F)c1Sc1cccc(C(F)(F)F)c1	-2.5%	0.716	-1.6	1.2	4.7	2.3	2.5
COc1ccc(CNC(=O)C2CCCN(S(=O)(=O)c3cnc[nH]3)C2)cc1 (stereo unspecified)	-2.8%	0.718	0.7	-0.2	-7.7	-2.7	8.7
Cc1ccnc(NC(=O)c2sc3ccccc3c2Cl)c1	-9.8%	0.743	-0.4	-6.2	5.1	-2.8	-12.4
CC(C)NC(=O)Nc1ccc2c(c1)C(=O)N([C@H](C)CO)C[C@H](C)[C@@H](CN(C)S(C)(=O)=O)O2	.	0.799	-0.4	0.5	1.9	2.0	5.5
C/C(=N\NC(=O)c1nn(C)c(C)c1Br)c1ccc(NC(=O)c2ccc(C)s2)cc1	-12.0%	.	2.1	-0.4	7.9	1.9	.
O=[N+]([O-])c1cc(S(=O)(=O)O)cc([N+](=O)[O-])c1NN(c1ccccc1)c1ccccc1	.	0.717	-4.5	-0.2	8.5	-3.3	7.9
CC(=O)N(Cc1ccccc1)c1nc(-c2ccccc2)cs1	.	0.688	2.3	0.1	-20.0	3.7	-1.4
O=C(Nc1ccc(O)c2c(=O)cc(-c3ccccc3Cl)oc12)c1ccc(Cl)cc1Cl	.	0.734	-1.5	0.8	-4.8	9.0	0.8
O=C(NCC1CCCO1)c1ccc(CS(=O)(=O)c2ccc(Br)cc2)o1 (stereo unspecified)	3.6%	0.721	2.6	1.5	-3.5	-1.0	6.0
c1ccc(-c2nc(NCCCN3CCOCC3)c3ccccc3n2)cc1	0.9%	0.665	-3.2	-0.2	-4.5	-1.1	2.7
O=C(NCC1CCCO1)C(c1cccnc1)N(C(=O)Cc1cccs1)c1cccnc1 (stereo unspecified)	-4.3%	0.668	0.6	0.9	-4.4	3.0	4.9
Cc1cccc(NC(=O)C2CCN(S(=O)(=O)c3c(C)nn(C)c3C)CC2)n1	-5.1%	0.708	-1.4	-0.1	8.0	2.7	0.8
Cc1ccccc1C(=O)Nc1ccccn1	-0.2%	0.716	1.0	-1.2	3.2	-0.7	-1.6
CNC(=O)CN(c1ccc(OC)cc1)S(=O)(=O)c1ccc(F)cc1	6.2%	0.688	4.1	-0.9	4.5	3.7	3.4
Cc1ccc(-n2ncc3c(N4CCCC(C)C4)ncnc32)c(C)c1 (stereo unspecified)	.	0.716	1.5	-0.2	-11.1	0.8	3.0
CC1(C)CC2CC(C)(CN2C(=S)NC(=O)c2ccccc2Cl)C1 (stereo unspecified)	.	0.648	0.2	0.4	1.9	-1.9	5.6
Cc1ccc(S(=O)(=O)N2CCN(c3ccnc4cc(Cl)ccc34)CC2)cc1C	-5.5%	0.686	2.2	0.8	-5.7	1.4	1.0
COc1ccc(NC(=O)N2CCCC2C(=O)NCc2ccccc2Cl)cc1 (stereo unspecified)	-4.5%	0.666	-1.7	0.0	-5.6	3.7	3.7
CCC(=O)Nc1ccc(C(=O)N/N=C/c2ccccc2[N+](=O)[O-])cc1	2.2%	.	2.7	0.5	-16.1	-2.4	.
CCc1nnc(NC(=O)C2CCCN(S(=O)(=O)c3ccccc3)C2)s1 (stereo unspecified)	-4.7%	0.691	0.5	0.4	3.8	-1.7	4.0
COc1ccc2nc(N3CCN(C(=O)c4ccc([N+](=O)[O-])o4)CC3)sc2c1	7.5%	0.589	2.0	-0.1	34.0	-2.1	3.8
CCN1CCN(C(=O)C2CCN(c3nnc(-n4c(C)ccc4C)s3)CC2)CC1	0.6%	0.73	-3.4	-0.1	6.4	-1.2	7.4
C=CCN1C(=O)C2(NNc3ccccc3O2)c2ccccc21 (stereo unspecified)	6.1%	0.723	70.9*	-1.0	-306.9	-0.7	-0.7
O=C(Cc1c(F)cccc1Cl)NCC(=O)OCc1ccccc1	-1.0%	0.689	1.1	0.1	-1.6	-4.4	-0.8
CCn1nnnc1SCC(=O)Nc1nc(-c2cccs2)cs1	?	0.701	3.7	0.5	1.5	i	0.4
CCOc1ccc(NS(=O)(=O)c2ccc(C(=O)NCC(C)(C)N3CCOCC3)cc2)cc1	-1.0%	0.654	-1.1	1.2	-2.3	4.0	-0.7
O=C(NCc1ccccc1)C(c1c(F)cccc1Cl)N(C(=O)c1csnn1)C1CC1 (stereo unspecified)	.	0.545	1.0	-0.3	3.0	2.4	-0.8
CC(=O)Nc1cccc(/C(C)=N/NC(=O)c2cc(-c3ccncc3)nc3ccccc23)c1	-6.5%	.	0.2	0.1	13.3	3.2	.
CCOc1ccc(CC(=O)N/N=C/c2sccc2C)cc1	.	.	5.5	-0.3	-3.8	7.1	.
CCCCC(CC)COP(=O)(OCC(CC)CCCC)OCC(CC)CCCC (stereo unspecified)	.	0.652	3.1	0.0	4.9	-55.5	2.9
O=C1SCCN1N=Cc1ccc([N+](=O)[O-])o1	8.3%	0.063*	-2.9	.	0.7	.	10.7
COc1ccc(C(F)(F)F)cc1N/C=C\c1nnnn1-c1ccc(C)cc1	1.9%	0.749	-2.8	0.2	3.1	-1.3	-5.2
COc1ccc(O)c(CN2CCCC(N3CCN(c4ccc(F)cc4)CC3)C2)c1 (stereo unspecified)	.	0.635	1.9	0.3	2.1	-3.7	0.7
O=S(=O)(c1ccc(Br)cc1)N1CCCN(Cc2ccccc2F)CC1	-3.8%	0.585	1.3	-0.7	-4.5	-3.5	1.0
CCNS(=O)(=O)c1ccc(C)c(-n2cnnn2)c1C	.	0.706	-1.0	0.3	12.2	1.5	-0.6
O=C(CNC(=S)N(Cc1ccccc1)Cc1ccccc1F)NCc1ccc(Cl)cc1	0.8%	0.734	-0.5	.	-5.1	.	-0.6
Clc1ccccc1-c1csc(Nc2cccnc2)n1	.	0.665	-4.3	2.7	-12.8	0.4	5.2
Cc1ccc(CNC(=O)c2cc(S(=O)(=O)N3CCCCC3)ccc2N2CCOCC2)cc1	.	0.688	-3.3	-0.8	0.8	-1.2	-0.5
CCCCCCSc1nsc(NC(=O)CCC)n1	20.4%	0.73	-2.4	-1.5	4.4	-3.1	5.5
O=C(COC(=O)Cn1cnc2ccccc21)Nc1cccc([N+](=O)[O-])c1	1.6%	0.638	3.0	2.1	4.1	1.0	4.8
CC(C)CCN1CC(C(=O)NCc2ccccc2)CC1=O (stereo unspecified)	10.0%	0.683	3.1	-0.2	-4.2	0.9	1.0
Cc1ccccc1Nc1nc(N)nc(COC(=O)[C@@H](NC(=O)c2c(F)cccc2F)C(C)C)n1	5.1%	0.649	-1.9	1.2	-1.2	-25.5	-0.6
Cc1ccc(NC2=NC3(CCCCC3)N=C(N)N2)c(C)c1	-0.5%	0.685	0.9	0.3	0.9	1.9	1.9
Cc1ncoc1C(=O)N1CCc2c([nH]c3ccccc23)C1c1ccccc1F (stereo unspecified)	2.7%	0.69	-3.2	-0.1	5.7	1.8	1.9
CCCCNC(=O)Cn1c(=O)c2c(ncn2CC)n(Cc2ccccc2)c1=O	-5.3%	0.653	0.3	-0.2	0.1	2.7	-1.0
Cc1ccc(C(=O)CNc2nc3c(c(=O)[nH]c(=O)n3C)n2Cc2ccccc2)cc1	-0.1%	0.804	-0.4	0.7	-10.4	-4.7	2.7
Fc1ccccc1Cn1nnc2c(NCCc3ccccn3)ncnc21	-8.4%	0.704	-0.4	-0.9	1.4	4.7	-1.7
O=C(c1scc2c1CCCC2)N1CCOCC1	24.7%	0.742	0.5	0.5	-6.5	-2.3	3.5
Cc1nc(-c2nnc(SCC(=O)Nc3ccc(C(F)(F)F)cc3)n2C)cs1	.	0.671	-0.8	-0.6	4.4	-0.5	5.2
Cc1oc(-c2cc(F)ccc2F)nc1CN1CCC(C(=O)N2CCOCC2)CC1	.	0.735	3.1	1.1	-8.1	2.8	-0.4
CC(C)Cc1ccc(C(C)C(=O)Nc2ccccc2O)cc1 (stereo unspecified)	4.2%	0.651	-4.4	-0.9	12.1	-5.3	2.1
CCC(NC(=O)NCCCn1ccnc1)(C(F)(F)F)C(F)(F)F	12.8%	0.69	0.8	0.4	-1.3	-0.7	-0.1

Carrying on:
SMILES	Vif TR-FRET	Ecoli growth	HNF4A DNA FP	Bfl-1 A1 inh	B2AR ag	LANA-H2B inh	UCH37 DUB inh
C=CCOc1c(Br)cc(C2NC(=O)NC(C)=C2C(C)=O)cc1OCC (stereo unspecified)	1.6%	0.692	1.4	0.3	-2.3	-0.8	2.2
COC(=O)c1cc2c(cc1N)OCCO2	16.9%	0.717	3.7	-4.6	-0.4	7.6	-13.3
S=c1[nH]nc(Cc2ccc(Cl)cc2)n1-c1ccc2c(c1)OCCO2	.	0.647	3.1	0.6	2.3	2.2	3.7
CC(C)(C)OC(=O)N1CCN(C(=O)OCC2c3ccccc3-c3ccccc32)CC1C(=O)O (stereo unspecified)	.	.	-1.0	-0.1	-2.9	-4.6	-0.1
O=C(NCc1ccco1)c1scc2c1OCCO2	?	0.752	3.3	0.4	3.0	-0.7	1.7
CCOC(=O)C1CCCN(CC(O)COCc2ccccc2OC)C1 (stereo unspecified)	.	0.632	-4.5	-0.3	3.3	1.8	0.0
CCOC(=O)c1nnc(-c2ccc(C)cc2)nc1Sc1ccccc1Cl	-0.1%	0.72	2.5	-0.6	11.0	-0.9	4.9
Cn1c(O)c(N=NC(=O)CNC(=O)c2ccccc2)c2ccccc21	.	0.694	2.0	-0.5	-11.6	1.4	3.8
COc1ccccc1C(=O)Nc1ncc2c(n1)CC(c1ccco1)CC2=O (stereo unspecified)	20.4%	0.702	-1.9	-0.4	-22.7	-5.5	1.6
O=C(O)COCC(=O)NCc1nc(-c2ccc(C(F)(F)F)cc2)no1	11.4%	0.634	1.4	1.3	-2.4	-5.3	2.7
O=C(/C=N/NC(=O)c1ccccc1Br)c1ccccc1	-6.0%	.	-1.9	-2.9	8.9	1.3	.

Three structures from above, arranged by heavy-atom count, falling:
SMILES	Vif TR-FRET	Ecoli growth	HNF4A DNA FP	Bfl-1 A1 inh	B2AR ag	LANA-H2B inh	UCH37 DUB inh
COc1ccccc1C(=O)Nc1ncc2c(n1)CC(c1ccco1)CC2=O (stereo unspecified)	20.4%	0.702	-1.9	-0.4	-22.7	-5.5	1.6
Cn1c(O)c(N=NC(=O)CNC(=O)c2ccccc2)c2ccccc21	.	0.694	2.0	-0.5	-11.6	1.4	3.8
S=c1[nH]nc(Cc2ccc(Cl)cc2)n1-c1ccc2c(c1)OCCO2	.	0.647	3.1	0.6	2.3	2.2	3.7
